# Screening results (PubChem)
# MARV entry inh = blocks Marburg virus binding to or entry into cells; Potency, µM (top dose mostly 37.8 µM), inactives show top-dose activity change, negative = inhibition, usual class: inhibitors; Marburg virus pseudotyped entry inhibition, cell reporter; control for the full effect not named in the record; about a third of the inactives were read at about 46 µM; actives 1.8% (n = 300,000); active = well fitted inhibition curve with a large enough effect; inconclusive = small, poorly fitted or top-dose-only effect, or effect the other way; inactive = flat fitted curve, though single readings scatter; tested in HEK293 cells; about a fifth of its hits are not listed in these tables; note: % is set by controls: 0 for no effect and ±100 for the full control effect; luciferase read-out
# NS1 inh = influenza NS1 inhibition; S. cerevisiae slowed by influenza A NS1, growth recovery by OD600; Potency, µM (titrated, usually from 46.1 µM), without a hit: top-dose activity, positive = more growth; actives 0.4% (n = 270,000); AID 2326; active means well fitted rising curve with a large enough effect; inconclusive means small, poorly fitted or top-dose-only effect; inactive means no such curve, though single readings can be large or run the other way; note: nearly all actives have a fitted effect of over 50% in size
#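 Read-out: OD600 growth recovery of NS1-expressing budding yeast. Cells grown overnight at 30C in -URA glucose medium, washed, resuspended and diluted 1:100 in 2% galactose assay medium, pH 6.0. Same strain lacking NS1 served as positive control.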
# Cruzain noTriton = inhibitors of Trypanosoma cruzi cruzain without detergent; purified cruzain, Z-FR-AMC fluorescence, no detergent; Potency, µM, inactives show max response, negative = inhibition, most hits filed as inhibitors; AID 1476; actives 2.3% (n = 200,000);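 note: plate controls were enzyme without inhibitor for no effect and buffer without enzyme for full effect; nearly all actives have a fitted effect of over 40% in size; top concentration of the series not given in the record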
# Target sequence (P25779 123-467 limits assumed): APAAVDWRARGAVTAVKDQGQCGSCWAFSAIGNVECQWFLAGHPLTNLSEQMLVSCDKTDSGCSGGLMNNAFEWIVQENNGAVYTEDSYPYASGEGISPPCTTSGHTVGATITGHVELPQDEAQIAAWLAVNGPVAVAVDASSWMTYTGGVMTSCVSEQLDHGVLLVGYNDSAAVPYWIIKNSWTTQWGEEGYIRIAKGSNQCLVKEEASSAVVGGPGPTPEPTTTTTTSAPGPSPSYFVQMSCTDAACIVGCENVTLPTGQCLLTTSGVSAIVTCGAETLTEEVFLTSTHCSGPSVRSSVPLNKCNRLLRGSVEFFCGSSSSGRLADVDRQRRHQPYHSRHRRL
#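 Detergent-free condition (0.00005% Triton X-100) in acetate buffer pH 5.5 with DTT. 1.5 nM enzyme and compound were pre-mixed 15 min, then 2 uM Z-FR-AMC substrate added; reaction progress from fluorescence change between first and third reads (60 s).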
# StopGo reporter = FMDV 2A StopGo reporter, luciferase signal | human cells with a luciferase reporter of 2A StopGo recoding; control for the full effect not named in the record | Potency, µM (highest dose often 57.9 µM), for inactives: at the top dose signal change, negative = less light | actives 1.2% (n = 410,000); active = well fitted falling curve with a large enough effect; inconclusive = small, poorly fitted or top-dose-only effect; inactive = no such curve, though single readings can be large or run the other way; tested in HEK293T cells; note: % is set by controls: 0 for no effect and ±100 for the full control effect; nearly all actives have a fitted effect of over 45% in size; luciferase light after 4 h
# Cruzain Triton = cruzain (T. cruzi) inhibition with detergent; AID 1478; Potency, µM, for inactives: max response, negative = inhibition, hits mostly inhibitors; purified cruzain, Z-FR-AMC fluorescence, 0.01% Triton; actives 0.43% (n = 200,000); P25779;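 note: plate controls were neutral wells for no effect and buffer without enzyme for full effect; nearly all actives have a fitted effect of over 40% in size; top concentration of the series not given in the record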
#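 Enzyme 1.5 nM, Z-FR-AMC 2 uM, NaOAc 100 mM pH 5.5, DTT 5 mM, Triton X-100 0.01%; 15 min RT compound preincubation; kinetic ex360/em450, 60 s delta.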
# SARS PLP yeast = blocks SARS-CoV papain-like protease in a yeast assay; Potency, µM (series often up to 32.9 µM), for inactives: at the top dose activity, positive = growth rescue; S. cerevisiae expressing SARS-CoV PLpro, growth rescue; control for the full effect not named in the record; actives 0.19% (n = 330,000); AID 485353; active means well fitted rising curve with a large enough effect; inconclusive means small, poorly fitted or top-dose-only effect; inactive means no such curve, though single readings can be large or run the other way; note: 0% is about no effect; nearly all actives have a fitted effect of over 55% in size; growth read by luminescence after 48 h
# LASV entry inh = inhibitors of Lassa virus binding or cell entry. Potency, µM (series often up to 37.9 µM), for the others: top-dose activity change, negative = inhibition, hits mostly inhibitors. AID 540256. actives 1.2% (n = 300,000). Lassa virus pseudotype entry inhibition, cell reporter; control for the full effect not named in the record; active means well fitted inhibition curve with a large enough effect; inconclusive means small, poorly fitted or top-dose-only effect, or effect the other way; inactive means flat fitted curve, though single readings scatter; tested in HEK293 cells; note: % is set by controls: 0 for no effect and ±100 for the full control effect; nearly all actives have a fitted effect of over 50% in size; luciferase read-out
# RE007 growth inh = less growth of the S. pombe RE007 Vpr strain; AID 651644; actives 0.21% (n = 360,000); Potency, µM (top dose mostly 92.2 µM), without a hit: at the top dose activity change, negative = less growth; S. pombe RE007 Vpr strain, BacTiter-Glo ATP luminescence, 24 h; control for the full effect not named in the record; active = well fitted falling curve with a large enough effect; inconclusive = small, poorly fitted or top-dose-only effect; inactive = no such curve, though single readings can be large or run the other way;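 note: % is set by controls: 0 for no effect and ±100 for the full control effect; nearly all actives have a fitted effect of over 50% in size; the assay follows cell death caused by Vpr and the record does not say whether a fall means rescue or toxicity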
#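 Fission yeast strain RE007, carrying one chromosomally integrated HIV-1 vpr copy, was seeded at OD 0.01 in PMG+AL medium with 23 nL pinned compound. After 24 h at 30 °C and 99% humidity, viability was read by BacTiter-Glo luminescence.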
# An asterisk follows results filed as active; ? = inconclusive; nt = no result given; & = joins results of further samples; [ ] = dose if it differs, or a comment. Unless noted, calls come from the whole dose curve; as a rule, active = well fitted curve in the direction sought with a large enough effect; inconclusive = small, poorly fitted or top-dose-only effect, or another doubt; inactive = no such curve, though single readings can be large; an effect the other way counts as inactive or inconclusive. Potency is the fitted concentration of half-maximal effect.
# The first two entries as a preview:
SMILES,MARV entry inh,NS1 inh,Cruzain noTriton,StopGo reporter,Cruzain Triton,SARS PLP yeast,LASV entry inh,RE007 growth inh
CCOC(=O)c1cccc(NC(=O)CC2C(=O)N(c3ccc(OC)cc3)C(=O)N2C2CCCC2)c1 (stereo not given),nt,nt,22%,-20%,-3.4%,nt,-13%[46.1 µM],nt
CN(C)CC/C=C1/c2cc(F)ccc2CSc2ccc(F)cc21,?,1%,-3%,-23%,-0.4%,13%,?,-3%

# Results, previewed entries included:
SMILES,MARV entry inh,NS1 inh,Cruzain noTriton,StopGo reporter,Cruzain Triton,SARS PLP yeast,LASV entry inh,RE007 growth inh
CCOC(=O)c1cccc(NC(=O)CC2C(=O)N(c3ccc(OC)cc3)C(=O)N2C2CCCC2)c1 (stereo not given),nt,nt,22%,-20%,-3.4%,nt,-13%[46.1 µM],nt
CN(C)CC/C=C1/c2cc(F)ccc2CSc2ccc(F)cc21,?,1%,-3%,-23%,-0.4%,13%,?,-3%
Cc1cc(NC(=O)CCC(=O)N(CC(=O)NCC2CCCO2)c2ccc(F)c(Cl)c2)no1 (stereo not given),4%[46.1 µM],-1%,nt,-14%,nt,2%,-8%[46.1 µM],-3%
O=c1[nH]c(=S)[nH]c(O)c1N=Nc1ccc2c(c1)OCO2,?,nt,nt,0%,nt,-3%,?,-2%
CCN(CC)S(=O)(=O)c1ccc(C(=O)NNC2=NS(=O)(=O)c3ccccc32)cc1,nt,3%,nt,-17%,nt,1%,nt,-7%
Fc1ccc(CSc2ccc3nnc(-c4cccnc4)n3n2)cc1,-20%&-20%[46.1 µM],nt,nt,?,nt,3%,13µM*,0%
CSc1cccc(NC(=S)N2CCC(N(C)C3CCCC3)CC2)c1,-17%[46.1 µM],nt,nt,-8%,nt,-1%,?,-16%
O=C(N/C(=C\c1ccccc1)C(=O)N1CCOCC1)c1ccco1,19%[46.1 µM],8%,nt,-16%,nt,9%,-10%,-4%
Cc1nc2ccccc2n1C(=O)N(C)C,?,nt,nt,-14%,nt,1%,-20%,4%
COc1ccccc1C/C(N)=N/OC(=O)COc1cccc2ccccc12,10%,2%,-5%,21%,-1.7%,-3%,11%,8%
O=C(NC(=S)Nc1cccnc1)c1cccs1,20%,-2%,nt,50%[activator],nt,-2%,28%,-18%
COc1c(C)cc(C(=O)C2CCCN(Cc3cnc(N4CCOCC4)s3)C2)cc1C (stereo not given),nt,-5%,nt,-19%,nt,0%,nt,-20%
C/C(=C\C(=O)c1ccncc1)Nc1ccccc1O,14%,-111%,-7%,0%,-4.8%,-13%,-11%,?
CC1c2cc3c(cc2CCN1CC(=O)Nc1ccc(S(=O)(=O)N2CCCC2)cc1)OCCCO3 (stereo not given),-27%[46.1 µM],-5%,nt,-25%,nt,-2%,?,-2%
O=C(c1ccc(S(=O)(=O)N2CCCC2)cc1)N1CCN(S(=O)(=O)c2cccc(F)c2)CC1,-1%,3%,nt,-21%,nt,0%,21%,-6%
CC(=O)NC(CC(=O)Nc1cccc(S(=O)(=O)N2CCCC2)c1)c1ccccc1 (stereo not given),-16%,5%,nt,-10%,nt,0%,-6%,1%
Cc1cccc(/C=N/N2CCN(c3ccccc3)CC2)c1,?,11%,?,26%,-2.0%,5%,?,3%
Cc1sc2nc3ccc(N4CCCCC4)nn3c(=O)c2c1C,?,-4%,-4%,-27%,-4.4%,-10%,-9%,27%
COc1ccccc1OCc1cc(C(=O)N2CCN(C)C(c3ccccc3)C2)no1 (stereo not given),?,nt,nt,7%,nt,-11%,?,0%
C/C=C/C(=O)OCC(=O)Nc1ccccc1Br,-6%[46.1 µM],nt,nt,-2%,nt,-2%,-14%,-8%
Cc1ccc(S(=O)(=O)NNC(=O)C(O)(c2ccccc2C)c2ccccc2C)cc1,1%,-10%,-4%,15%,-4.1%,6%,25%,-2%
Cc1cc(=O)oc2c3c(cc(OCC(=O)N4CCC[C@H]4C(=O)O)c12)OC(C)(C)CC3,nt,6%,nt,-18%,nt,10%,nt,15%
CC(C)N1CC(C(=O)Nc2cccc([N+](=O)[O-])c2)CC1=O (stereo not given),nt,0%,nt,-3%,nt,4%,nt,7%
O=C(NC1CCCC1)C(c1ccccc1)N(Cc1cccnc1)C(=O)Cc1cccs1 (stereo not given),4%,-1%,nt,23%,nt,-1%,1%,-14%
O=C(/C=N/O)NCC1CCNCC1,-1%,3%,-8%,-6%,3.3%,0%,0%,11%
COc1cc(NC(=O)C(C)C)ccc1NC(=O)c1cc2ccccc2o1,nt,-8%,nt,43%[activator],nt,-3%,nt,4%
CCOc1ccccc1NC(=O)Cn1nnc(C(=O)NCCc2ccc(OC)c(OC)c2)c1N,-19%,nt,nt,-18%,nt,1%,27%,29%
Cc1ccc2c(c1)NC(=O)C(CC(=O)Nc1ccccc1Cl)O2 (stereo not given),-1%[46.1 µM],nt,-7%,0%,0.3%,nt,nt,nt
Cc1ccc(Cn2nnc3c(=O)[nH]c(C4CCCN(C(=O)Nc5ccc(F)cc5F)C4)nc32)cc1 (stereo not given),-4%,?,3%,-11%,-3.6%,1%,-26%,7%
Cn1c(SCc2ccccc2F)nc2c([nH]c3ccccc32)c1=O,nt,nt,-2%,-12%,0.8%,nt,-3%[46.1 µM],nt
Cc1ccc(CNC(=O)c2ccc(NS(=O)(=O)c3cccs3)cc2)cc1,-1%[46.1 µM],-11%,nt,7%,nt,6%,19%[46.1 µM],16%
Brc1ccc(OCc2ccccc2)c(CNCc2ccncc2)c1,-23%,-56%,-7%,?,0.8%,-24%,?,-16%
O=C1CSC(c2ccccn2)N1c1ccc(Cl)c(Cl)c1 (stereo not given),-4%,25%,0%,?,1.5%,3%,10%,-24%[3.69 µM]
CCOC(=O)c1c(NC(=O)CSc2n[nH]c(N)n2)sc(CC)c1C,?,-14%,18%,nt,-8.8%,1%,-16%,8%
Cn1c(SCC(=O)Nc2nc3c(s2)CCCC3)nnc1-c1ccccc1,-2%,-2%,0%,-4%,-7.0%,0%,0%,6%
CCc1ccc(S(=O)(=O)NCCOc2cccc3cccnc23)cc1,-5%[46.1 µM],-24%,nt,-13%,nt,-1%,-17%[46.1 µM],5%
CCCN(CC1CC1)C(=S)Nc1ccccc1F,7%[46.1 µM],14%,nt,-9%,nt,1%,-8%[46.1 µM],-17%
O=C(Cn1ncc2c3ccccc3n(Cc3ccccc3)c2c1=O)N1CCCCCC1,6%[46.1 µM],nt,1%,1%,-2.4%,nt,14%[46.1 µM],nt
CC1OC(Nc2ccc(OC(F)(F)F)cc2)C(O)C(O)C1O (stereo not given),18%,-3%,-6%,1%,4.4%,-18%,5%,-6%
S=c1[nH]c2cnccc2n1Cc1ccccc1,2%,0%,nt,7%,nt,-1%,-12%,26%
CCOC(=O)CC(NS(=O)(=O)c1cc(-c2cc(C)no2)ccc1C)c1ccc(C)cc1 (stereo not given),nt,nt,9%,40%[activator],-4.8%,nt,?,nt
COc1ccccc1CN(C)CC(=O)Nc1ccc(Cl)cc1C(F)(F)F,5%,-8%,3%,0%,-2.9%,-16%,?,-12%
CCOc1ccc(C(C)=O)cc1CSc1nc(C)cc(C)n1,-25%[46.1 µM],6%,nt,-17%,nt,-1%,?,11%
CN1CCN(S(=O)(=O)c2ccc(Sc3nnc(-c4cccs4)n3-c3ccccc3)nc2)CC1,-24%&-24%,-10%,1%,?,-3.7%,0%,5%,-2%
CC(=O)Nc1ccc(NC(=O)CCCNC(=O)c2ccc(Cl)cc2)cc1,25%[46.1 µM],-57%,nt,-4%,nt,-1%,-9%[46.1 µM],-2%
COc1ccc(/C=C/C(=O)c2c(O)n(CCC3=CCCCC3)c(=O)[nH]c2=O)cc1OC,nt,4%,nt,?,nt,0%,nt,-1%
COc1cccc(/C=N/NC(=O)c2cnn(-c3ccccc3)c2N)c1,nt,0%,nt,51%[activator],nt,1%,nt,5%
Cc1ccc(C(=O)Nc2cccc(-c3ccc(N4CCOCC4)nn3)c2)cc1,?,nt,nt,13%,nt,6%,?,-6%

# Eight entries from above, sorted by number of heavy atoms, smallest number first:
SMILES,MARV entry inh,NS1 inh,Cruzain noTriton,StopGo reporter,Cruzain Triton,SARS PLP yeast,LASV entry inh,RE007 growth inh
S=c1[nH]c2cnccc2n1Cc1ccccc1,2%,0%,nt,7%,nt,-1%,-12%,26%
CCCN(CC1CC1)C(=S)Nc1ccccc1F,7%[46.1 µM],14%,nt,-9%,nt,1%,-8%[46.1 µM],-17%
CC1OC(Nc2ccc(OC(F)(F)F)cc2)C(O)C(O)C1O (stereo not given),18%,-3%,-6%,1%,4.4%,-18%,5%,-6%
COc1cccc(/C=N/NC(=O)c2cnn(-c3ccccc3)c2N)c1,nt,0%,nt,51%[activator],nt,1%,nt,5%
COc1ccccc1CN(C)CC(=O)Nc1ccc(Cl)cc1C(F)(F)F,5%,-8%,3%,0%,-2.9%,-16%,?,-12%
Cc1ccc(C(=O)Nc2cccc(-c3ccc(N4CCOCC4)nn3)c2)cc1,?,nt,nt,13%,nt,6%,?,-6%
CCOC(=O)CC(NS(=O)(=O)c1cc(-c2cc(C)no2)ccc1C)c1ccc(C)cc1 (stereo not given),nt,nt,9%,40%[activator],-4.8%,nt,?,nt
CN1CCN(S(=O)(=O)c2ccc(Sc3nnc(-c4cccs4)n3-c3ccccc3)nc2)CC1,-24%&-24%,-10%,1%,?,-3.7%,0%,5%,-2%
